2A StopGo – FMDV 2A StopGo reporter, luciferase signal; human cells with a luciferase reporter of 2A StopGo recoding; control for the full effect not named in the record; Potency, µM (series often up to 57.9 µM), inactives show at the highest dose signal change, negative = less light; 1.2% of 410,000 active; AID 1159524; active = well fitted falling curve with a large enough effect; inconclusive = small, poorly fitted or top-dose-only effect; inactive = no such curve, though single readings can be large or run the other way; tested in HEK293T cells; further: on the % scale 0 is the no-effect control and ±100 the full control effect; nearly all actives have a fitted effect of over 45% in size; luciferase light after 4 h
SARS PLP yeast – inhibitors of SARS-CoV papain-like protease in yeast | Potency, µM (doses to about 32.9 µM), inactives show at the top dose activity, positive = growth rescue | 0.19% of 330,000 active | S. cerevisiae expressing SARS-CoV PLpro, growth rescue; control for the full effect not named in the record; active means well fitted rising curve with a large enough effect; inconclusive means small, poorly fitted or top-dose-only effect; inactive means no such curve, though single readings can be large or run the other way; further: 0% is about no effect; nearly all actives have a fitted effect of over 55% in size; growth read by luminescence after 48 h
RE007 growth inh – less growth of the S. pombe RE007 Vpr strain; S. pombe RE007 Vpr strain, BacTiter-Glo ATP luminescence, 24 h; control for the full effect not named in the record; Potency, µM (top dose mostly 92.2 µM), without a hit: at the top dose activity change, negative = less growth; 0.21% of 360,000 active; AID 651644; active = well fitted falling curve with a large enough effect; inconclusive = small, poorly fitted or top-dose-only effect; inactive = no such curve, though single readings can be large or run the other way;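 further: on the % scale 0 is the no-effect control and ±100 the full control effect; nearly all actives have a fitted effect of over 50% in size; the assay follows cell death caused by Vpr and the record does not say whether a fall means rescue or toxicity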
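Fission yeast strain RE007, carrying one chromosomally integrated HIV-1 vpr copy, was seeded at OD 0.01 in PMG+AL medium with 23 nL pinned compound. After 24 h at 30 °C and 99% humidity, viability was read by BacTiter-Glo luminescence.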
* marks the source's active call; other numbers are inactive results; ? = inconclusive; [ ] = remark or other dose. Potency means the concentration at half of the fitted maximal effect. Some of the compounds tested, so the mix of outcomes need not match the whole.

Every second line gives: 2A StopGo, SARS PLP yeast, RE007 growth inh
Cc1ccc(-c2csc3nc(C)n(N)c(=O)c23)cc1
  6%, -1%, 2%
COc1ccc(Cl)cc1C(=O)NNC(=O)CN1C(=O)C2CC=CCC2C1=O (stereo not drawn)
  -1%, -1%, -4%
NC(=O)c1ccc(SCC(=O)OCC(=O)NCc2cccs2)c([N+](=O)[O-])c1
  -11%, -2%, -2%
CC(C)(C)OC(=O)NCc1ccc(CNC(=O)c2nc[nH]c2C(=O)N2CCN(c3ccccc3)CC2)cc1
  20µM*, -1%, 17%
O=C(COC(=O)c1ccccn1)NNC(=O)c1ccc(Br)cc1
  -10%, -4%, 2%
Cc1ccc(NC(=O)CSC(C)C(=O)OC(C)C(=O)NC2CCCCC2C)cc1 (stereo not drawn)
  -1%, -3%, 14%
CCS(=O)(=O)c1ccc2oc(SCC(=O)c3c(N)n(C4CC4)c(=O)[nH]c3=O)nc2c1
  ?, -16%, -1%
Cc1ccccc1C(=O)N1CCC(C(=O)OCc2ccccc2Cl)CC1
  -23%, 5%, -1%
CN(C(=O)c1ccc(NC(=O)C2CCCN(C(=O)OC(C)(C)C)C2)cc1)C1CC1 (stereo not drawn)
  -23%, 4%, -7%
COCCn1c(SCC(=O)NC2(C#N)CCCCC2)nc2ccccc2c1=O
  0%, 9%, -6%
CC[C@@]12C(=O)N(c3cccc(Cl)c3)C(=O)N1[C@H](c1cccc(C)c1)[C@@H]1C(=O)N(Cc3ccccc3)C(=O)[C@@H]12
  -12%, 1%, 4%
COc1ccc(N2CCN(C(=O)COC(=O)c3ccc(OC(F)F)cc3)CC2)cc1
  -3%, 0%, 7%
CC1(c2ccc(Cl)cc2)NC(=O)N(CC(=O)N2CCc3ccccc3C2)C1=O (stereo not drawn)
  ?, 0%, 3%
Cc1ccccc1-c1cc(=O)c2ccccc2o1
  41%[activator], -8%, -30%
O=C(c1n[nH]c2ccccc12)N1CCN(S(=O)(=O)c2ccccc2)CC1
  -25%, 4%, 15%
Cc1[nH]nc(SCC(=O)NC2CCCCC2)c1[N+](=O)[O-]
  -11%, 2%, -11%
Cc1cc(C(=O)OCC(=O)NC2(C#N)CCCCC2)c(C)o1
  1%, 2%, 7%
CC(C)(C)OC(=O)C[C@H]1C/C=C\C[C@H](CC(=O)NCCO)C(=O)NC[C@H](c2ccccc2)OC1=O
  -7%, 1%, 4%
CC[C@@]1(C(=O)OC)N[C@H](CN(C)C(=O)Nc2ccc(Cl)cc2)[C@@H]2C(=O)N(Cc3ccccc3)C(=O)[C@@H]21
  -13%, -6%, 6%
Cc1noc(C)c1COc1cccc(C(=O)Nc2ccccc2)c1
  -2%, 2%, -3%
Cc1cccc(NS(=O)(=O)c2ccc(C)c(C(=O)NCC(c3ccccc3)N(C)C)c2)c1 (stereo not drawn)
  -8%, 1%, 4%
O=C(CN1CCN(Cc2ccccc2)CC1)N1N=CCC1c1ccccc1 (stereo not drawn)
  -13%, 0%, -3%
Cn1cnnc1SCC(=O)Nc1ccc(N2CCCCC2)cc1
  43%[activator], 12%, 1%
COC(=O)C1=C(c2cccc(C#N)c2)C[C@@H]2CC[C@H]1N2C(=O)NCCOc1ccc(OC)cc1
  -14%, 2%, 2%
COC(=O)C1=C(c2ccc(Cl)c(C(F)(F)F)c2)C[C@@H]2CC[C@H]1N2C(=O)NC(C)C
  -24%, 2%, -5%
CSc1nnc(-c2cccc(NC(=S)NN)c2)o1
  4%, -2%, 4%
Cc1cc(NC(=O)C(C)SCC(=O)Nc2ccccc2N2CCCC2)no1 (stereo not drawn)
  -11%, 0%, 18%
CCCCN(C(=O)c1cc2ccccc2o1)c1c(N)n(CCCC)c(=O)[nH]c1=O
  10%, -6%, 10%
CC(C)C[C@H](NC(=O)c1[nH]cnc1C(=O)N[C@@H](C)C(=O)OCc1ccccc1)C(=O)OCc1ccccc1
  14%, -2%, 15%
CC(C(=O)N1c2ccccc2CC1C)N1CCN(S(=O)(=O)c2ccccc2F)CC1 (stereo not drawn)
  -12%, -3%, 3%
CC(NC(=O)C1CCN(C(=O)Nc2ccccc2)CC1)c1ccccc1Cl (stereo not drawn)
  -10%, -3%, -15%
Cc1ccc([C@@H]2CC=C(C(=O)O)[C@H](c3ccccc3)N2S(=O)(=O)c2ccc(C)cc2)cc1
  35%[activator], 2%, 2%
COc1ccc(NC(=O)N(C)C[C@H]2Oc3c(NC(=O)Nc4ccc(C(F)(F)F)cc4)cccc3C(=O)N([C@H](C)CO)C[C@@H]2C)cc1
  -28%, 12%, -27%
COc1ccc(S(=O)(=O)N2CCCCC2)cc1NC(=O)CCOc1cc(C)ccc1C
  5%, -4%, -9%
C[C@H]1CN([C@@H](C)CO)C(=O)c2cccc(NC(=O)C3CC3)c2O[C@H]1CN(C)Cc1ccncc1
  -8%, 3%, 2%
CCOC(=O)C1=CN(Cc2cccc(F)c2)S(=O)(=O)N(CC)C1c1ccc(Br)cc1F (stereo not drawn)
  -28%, -14%, -1%
C[C@H](CO)N1C[C@H](C)[C@@H](CN(C)S(C)(=O)=O)Oc2ccc(NC(=O)CCC(F)(F)F)cc2C1=O
  6%, -2%, -3%
CN(C)/C=C(\C#N)C(=O)N/N=C/c1ccc(Cl)cc1
  67%[activator], 3%, -2%
CNC[C@H]1Oc2ccc(NC(=O)C3CCCCC3)cc2CC(=O)N([C@H](C)CO)C[C@@H]1C
  -4%, 3%, 1%
COc1cccc(N2CCN(C(=O)c3cc(-c4ccccc4)nc4c3cnn4C(C)C)CC2)c1
  0%, 8%, 3%

Individual results from above:
2A StopGo result of `Cc1cc(C(=O)OCC(=O)NC2(C#N)CCCCC2)c(C)o1` = 1%
2A StopGo result of `CNC[C@H]1Oc2ccc(NC(=O)C3CCCCC3)cc2CC(=O)N([C@H](C)CO)C[C@@H]1C` = -4%
2A StopGo result of `CC[C@@]1(C(=O)OC)N[C@H](CN(C)C(=O)Nc2ccc(Cl)cc2)[C@@H]2C(=O)N(Cc3ccccc3)C(=O)[C@@H]21` = -13%

Going on with the list.
Every second line gives: 2A StopGo, SARS PLP yeast, RE007 growth inh
COc1ccc([C@H]2CC(=O)C=C(c3cc(Br)ccc3OC)C2)cc1
  -8%, 3%, 4%
C[C@H]1COC(=O)[C@@H](Cc2ccc(F)cc2)C/C=C\C[C@@H](CC(=O)N[C@@H](CO)Cc2ccccc2)C(=O)N1
  0%, 8%, 5%
COCCCOc1cc(NCc2ccccc2)c2ncn(C(C)C)c2c1
  -13%, -6%, -17%
Cc1cc(Cl)cc(C)c1OCC(=O)NC1CCCCCC1
  9%, 2%, 3%
Cc1cc(Br)cc(Cl)c1OCC(=O)N1CCN(C(=O)c2ccco2)CC1
  -12%, -2%, 6%
NC(=O)CSc1ccc(S(=O)(=O)N2CCCCC2)cn1
  -25%, -3%, 3%
C[C@H](CO)N1C[C@H](C)[C@@H](CN(C)S(=O)(=O)c2cn(C)cn2)Oc2c(NS(=O)(=O)c3ccccc3)cccc2C1=O
  -17%, -6%, 0%
CC1OC(OC2C(Oc3c(-c4ccc(O)cc4)oc4cc(O)cc(O)c4c3=O)OC(COC3O[C@@H](C)[C@H](O)[C@@H](O)C3O)C(O)C2O)C(O)C(O)C1O (stereo partly drawn)
  0%, 0%, -3%
CC(=O)c1ccc(N2CCN(C(=O)c3ccc(C(=O)c4ccccc4)cc3)CC2)cc1
  -23%, -2%, -13%
CC1(c2ccc(OC(F)F)cc2)NC(=O)N(CC(=O)NC2CCCC2)C1=O (stereo not drawn)
  0%, -8%, -16%
CCOC(=O)c1c(C)[nH]c(C)c1C(=O)COC(=O)Cc1n[nH]c(=O)c2ccccc12
  -10%, -7%, 2%
O=c1[nH]c(=O)n(Cc2ccccc2Cl)c(O)c1C=Nc1ccc(F)cc1
  -13%, 0%, 1%
O=C(COC(=O)CNS(=O)(=O)c1cc(C(F)(F)F)ccc1Cl)NC1CC1
  -2%, -2%, 9%
O=C(CNC(=O)c1ccccc1F)OCn1nnc2ccccc2c1=O
  -9%, -12%[6.58 µM], 4%
NC(=O)c1sc2nc(-c3ccccc3)c3c(c2c1N)CCCC3
  ?, -6%, 5%
C[C@H](CO)N1C[C@H](C)[C@@H](CN(C)Cc2ccc(-c3ccccc3)cc2)Oc2c(NS(=O)(=O)c3cccs3)cccc2C1=O
  6%, -5%, 9%
CC[C@H](C)Cc1cn([C@@H](CCCCN)C(=O)NCCCCCCCCCCC(=O)N2CCNCC2)nn1
  8%, -10%, -2%
CN(C(=O)c1ccc(NC(=O)C2CCCN(C(=O)OC(C)(C)C)C2)cc1)C1CCCC1 (stereo not drawn)
  -31%, ?, 26%
CNc1cc(F)nc(F)n1
  -5%, -3%, -1%
O=C(CN1C(=O)NC2(CCCCCC2)C1=O)c1ccc(Cl)cc1
  26%, 2%, -2%
COC(=O)CNC(=O)COC(=O)/C=C/c1ccccc1[N+](=O)[O-]
  3%, -2%, 0%
CCN(C(=O)COC(=O)CC1CCCCC1)c1c(N)n(Cc2ccccc2)c(=O)[nH]c1=O
  -19%, 2%, 1%
N#Cc1ccc(OCC(=O)Nc2ccc(S(=O)(=O)N3CCOCC3)cc2)cc1
  -21%, 2%, -5%
CON(C)C(=O)CCN(C(=O)OC(C)(C)C)c1ccccc1
  0%, 8%, 10%
O=C(NCCSc1c[nH]c2ccccc12)c1ccc2c(c1)OCO2
  -10%, -2%, 0%
COC(=O)c1ccccc1NC(=O)c1cccc(NC(=O)C(C)C)c1
  -5%, 0%, -14%
O=C(OCC(=O)N1CCc2ccccc21)c1ccncc1
  -7%, 13%, 38%
CN1CCN(c2ccc(S(=O)(=O)N3CCOCC3)cc2NC(=O)CC(C)(C)C)CC1
  -13%, -14%, 4%
CCN(CC(=O)Nc1c(F)cccc1F)C(=O)c1ccc(OCc2c(C)noc2C)cc1
  -15%, -2%, 4%
O=C(CCNS(=O)(=O)c1ccccc1C(F)(F)F)Nc1ccncc1
  24%, 6%, 7%
Cc1ccc(OCc2ccc(C(=O)NCC3CCCO3)cc2)cc1 (stereo not drawn)
  8%, -1%, 4%
COc1ccc([C@H]2CC(=O)C=C(c3ccccc3Oc3ccccc3)C2)cc1
  -26%, 2%, 1%
CCc1nnc(NS(=O)(=O)c2ccc(NC(=O)c3ccc(Cl)cc3)cc2)s1
  -2%, -5%, 5%
OC(COc1ccc2c(c1)OCO2)CN1CCN(c2ccc(F)cc2)CC1 (stereo not drawn)
  -11%, 0%, 5%
COc1cc(OC)cc(C(=O)NC(C(=O)NCc2ccccn2)C(C)C)c1 (stereo not drawn)
  -11%, -1%, 2%
O=C(NCc1ccccn1)c1cccc(S(=O)(=O)Nc2ccccc2Cl)c1
  1%, 4%, 7%
On1nnc2ccc(C(F)(F)F)cc21
  -20%, 5%, 18%
CCOc1ccc(NC(=O)N2CCC(c3nc4ccccc4o3)CC2)cc1
  -23%, 2%, -4%
COc1ccccc1CNC(=O)C(NC(=O)c1ccc(C)cc1)C(C)C (stereo not drawn)
  -9%, -2%, -4%
CCN(c1ccc(NC(=O)COC(=O)CCc2cc(OC)c(OC)c(OC)c2)cc1)C(C)C
  8%, -7%, -20%

Complete entries, looked up by structure. Screens in order: 2A StopGo, SARS PLP yeast, RE007 growth inh
CCOc1ccc(NC(=O)N2CCC(c3nc4ccccc4o3)CC2)cc1 is listed as -23%, 2%, -4%
O=C(NCc1ccccn1)c1cccc(S(=O)(=O)Nc2ccccc2Cl)c1 is listed as 1%, 4%, 7%

Remaining list, next part
Every second line gives: 2A StopGo, SARS PLP yeast, RE007 growth inh
CN(C(=O)COC(=O)C12CC3CC(CC(Cl)(C3)C1)C2)C1(C#N)CCCCC1
  12%, 0%, -2%
O=C(Nc1ccncc1)C1CCN(S(=O)(=O)c2cccc(C(F)(F)F)c2)CC1
  -11%, 3%, -16%
c1ccc(CCCCN2CCN=C2Nc2ccccc2)cc1
  -5%, -19%, 6%
COCCN(CC(=O)Nc1ccccc1C(F)(F)F)C(=O)/C=C/c1cc(Cl)c2c(c1)OCO2
  -16%, -4%, 7%
O=C(Nc1ccccc1)c1nc[nH]c1C(=O)N1CCc2ccccc2C1
  0%, -2%, -9%
CC1CCN(C(=O)c2ccc(CNS(=O)(=O)c3ccc(C(C)(C)C)cc3)cc2)CC1
  -9%, -7%, 3%
O=C1CCN(Cc2ccccc2)C=C1c1ccc2ccccc2c1
  57%[activator], 8%, 1%
COc1ccc(/C=N/NC(=O)c2cc(O)c(O)c(O)c2)cc1Cn1cc([N+](=O)[O-])cn1
  -17%, 10µM*, 0%
Cc1cc(C(=O)COC(=O)c2ccc(NC(=O)CC#N)cc2)c(C)n1CCc1ccc(F)cc1
  -28%, 2%, 15%

Assay outcomes deposited in PubChem BioAssay by National Center for Advancing Translational Sciences (NCATS).
